# Screens (PubChem)
# RGS16-Gao: modulators of RGS16 binding to Galphao, primary screen, biochemical, human proteins, multiplexed bead flow cytometry | Regulator of G-protein signaling 16 (Homo sapiens) + Guanine nucleotide-binding protein … | bead-based flow cytometry RGS16-Galphao binding, fluorescence; actives lie on both sides | binding response (% of control), % at 10 µM | 220,000 compounds, 0.38% hits;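 active = below 25% or above 175%, edge rows of some plates excepted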;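 note: Galphao activated by GDP with aluminum fluoride before binding; 100% = wells without compound and 0% = beads without RGS; some results beyond the cut were filed as inactive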
# Target sequence (O15492 whole entry, looked up): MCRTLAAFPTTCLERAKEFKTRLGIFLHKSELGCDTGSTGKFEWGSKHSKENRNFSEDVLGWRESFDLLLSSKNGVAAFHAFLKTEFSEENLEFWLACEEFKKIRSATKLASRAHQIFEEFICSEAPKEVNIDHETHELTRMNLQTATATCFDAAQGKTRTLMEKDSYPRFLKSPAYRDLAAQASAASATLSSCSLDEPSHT
# Target sequence (P09471 whole entry, looked up): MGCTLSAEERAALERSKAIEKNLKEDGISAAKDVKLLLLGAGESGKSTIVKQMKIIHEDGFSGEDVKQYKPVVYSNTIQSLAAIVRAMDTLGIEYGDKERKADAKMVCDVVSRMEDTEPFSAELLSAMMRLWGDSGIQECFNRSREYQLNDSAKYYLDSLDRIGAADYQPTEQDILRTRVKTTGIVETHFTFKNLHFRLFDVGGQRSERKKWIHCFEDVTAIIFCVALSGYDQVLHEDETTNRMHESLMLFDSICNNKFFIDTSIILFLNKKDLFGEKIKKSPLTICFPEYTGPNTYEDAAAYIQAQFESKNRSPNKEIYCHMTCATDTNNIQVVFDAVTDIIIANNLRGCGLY
# INS promoter inh: inhibitors of insulin promoter-driven GFP, primary screen, imaging, TRM-6 cells (human fetal islet line), eGFP reporter, cell count. reporter expression induced with tamoxifen. inhibition, % at 2 µM. 130,000 compounds, 0.9% hits. AID 1273, 2008;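 active = inhibition above the mean plus 3 SD, with well images judged a real hit on visual review, cut at about 60% in these data, passing the limit was not always enough; inconclusive = inhibition over the cutoff but images rejected on review; inactive = inhibition not above the cutoff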
# PKD1 kinase inh: inhibitors of human PKD1 kinase, biochemical, fluorescence polarization | PKD1 kinase fluorescence polarization assay | inhibition, %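 (about 10 µM by stock and volumes)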 | 200,000 compounds, 0.056% hits | AID 797, 2007;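 active = inhibition of 50% or more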;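 note: controls were vehicle for no effect and a reference inhibitor for full effect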
# GALR2 ag: GALR2 receptor agonists, primary screen, cell-based; Galanin receptor type 2 (Homo sapiens), O43603; GALR2-expressing cells, agonist activation read-out; activation, %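 (tested at 5 µM)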; 140,000 compounds, 0.48% hits; AID 803, 2007;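 active = above mean plus 3 SD of all compounds, about 5% in these data, not always enough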;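 note: 0% = vehicle buffer wells and 100% = reference agonist at full effect; tested in CHO reporter cells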
# Target sequence (O43603 whole entry, looked up): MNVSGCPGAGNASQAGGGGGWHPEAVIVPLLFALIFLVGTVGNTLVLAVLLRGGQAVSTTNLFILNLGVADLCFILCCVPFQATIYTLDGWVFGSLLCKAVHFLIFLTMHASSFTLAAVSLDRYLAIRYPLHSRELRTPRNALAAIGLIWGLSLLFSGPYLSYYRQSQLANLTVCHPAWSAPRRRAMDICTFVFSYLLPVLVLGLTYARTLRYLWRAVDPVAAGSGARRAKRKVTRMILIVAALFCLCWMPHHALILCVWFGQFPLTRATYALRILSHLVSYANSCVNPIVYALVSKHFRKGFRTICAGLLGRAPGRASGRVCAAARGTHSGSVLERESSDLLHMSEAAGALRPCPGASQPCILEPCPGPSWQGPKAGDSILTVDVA
# HSV replic up: enhancers of HSV replication in host cells, fold increase, host cell viability; HSV replication augmentation in cells; maximum fold increase; 220,000 compounds, 0.005% hits;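 active = peak rise of 1.5-fold or more in the series; inconclusive = self-fluorescent or not available for retest; tested in PC3 cells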;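 note: first round at 10 µM; read as green reporter fluorescence; hits show the peak of a series up to 25 µM; 1 = signal of infected wells without compound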
# INS promoter inh cell count: second read-out of INS promoter inh, no call of its own (marks repeat the call); normalized cell count, %; measured here: cell count, toxicity; reference of the scale not given here;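 cells exposed to compound for 48 h; stained nuclei by imaging scaled within each plate; lower means fewer cells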
# HSV replic up primary fold: second read-out of HSV replic up, no call of its own (marks repeat the call); fold increase; compound at 10 µM; measured here: primary screen fold increase 10 uM; tested in PC3 cells;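 GFP signal in the first replicate; 1 = infected wells without compound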
# Active calls of the source: *; i = inactive; u = inconclusive; x = not tested or not shown. Random draw from the library; 1.3% or so of the library scored in one or more.
SMILES,RGS16-Gao,INS promoter inh,INS promoter inh cell count,PKD1 kinase inh,GALR2 ag,HSV replic up,HSV replic up primary fold
COCCN(Cc1cc2cc(C)ccc2n2nnnc12)C(=S)Nc1cccc(C)c1,111.4,x,x,-4.7,x,i,0.85
COc1ccc(NC(=O)CSc2nnc3n2CCCCC3)cc1,100.4,x,x,0.4,x,i,0.95
CNCCC1Sc2ccccc2Oc2ccccc21 (configuration not stated),116.5,-66.7,119.0,1.2,x,i,0.84
N#Cc1cccc(NC(=O)C2SC(=Nc3ccccc3)C(C(=O)N3CCOCC3)=C2N)c1 (configuration not stated),102.7,-9.8,74.5,-3.4,-0.7,i,0.94
Cc1ccc(NC(Cc2cc(C)no2)c2ccccc2)cc1 (configuration not stated),80.1,-28.6,40.3,-13.9,-1.3,i,0.99
N#Cc1c(-c2ccco2)cc(C2CC2)nc1N,95.3,18.2,68.5,4.1,-0.1,i,1.18
COCCCNC(=O)c1ccc(N2CCOCC2)c(NS(=O)(=O)c2ccc(OC)cc2)c1,x,35.5,76.7,3.9,-2.5,i,0.75
CCCOc1ccc(S(=O)(=O)NNC(=O)c2cc3ccccc3o2)cc1,116.7,-14.3,78.7,-1.7,-1.2,i,1.01
Cc1ccc(-n2c(SCc3nnc4n3CCC4)nnc2-c2ccccc2)cc1,101.7,-29.0,81.0,-10.9,-3.1,i,0.91
Cc1cc(N2CCOCC2)ccc1/C=C1\SC(=O)N(C(C)C)C1=O,96.1,x,x,-1.1,-2.7,i,1.03
O=C(O)CN(c1ccc(F)cc1)S(=O)(=O)c1ccc2c(c1)OCCO2,105.8,x,x,4.3,-2.6,i,0.81
Cc1cc(Nc2ccccc2)n(CCOC(=O)COc2ccccc2)n1,98.0,x,x,-11.5,-2.4,i,0.98
CCOC(=O)/C(C#N)=C1\SS/C(=C(/C#N)C(=O)OCC)S1,86.3,x,x,x,x,i,1.02
Cn1c(C(=O)NCCc2ccsc2)cc2c(=O)n(C)c3ccccc3c21,91.2,x,x,-5.5,-4.5,i,0.92
C=CCN1CCc2nc(N)sc2CC1,47.3,-52.4,58.8,-3.7,-1.3,i,0.97
COc1cccc(NC(=O)CC2COc3ccccc3O2)c1 (configuration not stated),105.5,-48.4,107.1,1.0,-2.7,i,0.933
COCC(=O)N1CCC(Oc2ccc(C(=O)NCCc3ccncc3)cc2)CC1,104.7,x,x,-0.2,x,i,0.99
S=c1[nH]nc(-c2ccc(Cl)cc2Cl)n1-c1ccc2c(c1)OCCO2,90.8,x,x,x,x,i,1.05
O=S(=O)(c1ccc(F)cc1)N1CCN(c2ccccn2)CC1,95.7,28.6,82.8,2.1,x,i,1.05
O=C1C2CCCCN2C(=O)N1CCCCN1CCN(c2ccc([N+](=O)[O-])cc2)CC1 (configuration not stated),107.6,-14.3,166.4,-1.9,-2.3,i,1.05

# Of the compounds above, these have a furan ring, fused or not:
SMILES,RGS16-Gao,INS promoter inh,INS promoter inh cell count,PKD1 kinase inh,GALR2 ag,HSV replic up,HSV replic up primary fold
N#Cc1c(-c2ccco2)cc(C2CC2)nc1N,95.3,18.2,68.5,4.1,-0.1,i,1.18
CCCOc1ccc(S(=O)(=O)NNC(=O)c2cc3ccccc3o2)cc1,116.7,-14.3,78.7,-1.7,-1.2,i,1.01

# Remaining list, next part:
SMILES,RGS16-Gao,INS promoter inh,INS promoter inh cell count,PKD1 kinase inh,GALR2 ag,HSV replic up,HSV replic up primary fold
C/C(=N\NC(=S)Nc1ccccc1)C1Cc2ccccc2C(=O)O1 (configuration not stated),103.0,x,x,x,x,i,0.9
CCCCc1nc(NCCN)c(C#N)c2c1CSC(C)(C)C2,90.2,-3.5,82.6,-0.3,2.2,i,0.73
Cn1nc(C(=O)Oc2cc(=O)n(C)c3ccccc23)c2ccccc2c1=O,101.5,x,x,5.4,x,i,1.01
O=C(CN(Cc1ccc(F)cc1)C(=O)CCC(=O)Nc1ccccn1)NCc1ccco1,102.5,x,x,-7.0,-0.2,i,0.99
Cc1ccc(/C=N/n2nnnc2N)cc1[N+](=O)[O-],98.1,x,x,0.9,0.4,i,1.02
CCc1ccccc1NC(=O)CC1S/C(=N\c2nccs2)N(CC)C1=O (configuration not stated),99.6,x,x,-4.9,-0.6,i,0.82
O=C(COC(=O)/C=C/c1ccc(Cl)cc1)Nc1ccccc1,99.8,x,x,6.6,x,i,0.96
CC(C)Oc1ccc(C(=O)Nc2ccc(N3CCCCC3)cc2)cc1,104.3,22.2,103.8,0.5,1.2,i,0.86
CC(=O)NC(CCS(C)(=O)=O)C(=O)Nc1ccc(Cl)c(Cl)c1 (configuration not stated),99.6,-60.0,120.9,-4.3,-2.6,i,0.79
O=[N+]([O-])c1ccc(O)c(/C=N/Nc2ccc(Cl)nn2)c1,91.6,x,x,-4.1,-1.6,i,0.54
CCCS(=O)(=O)C/C(N)=N/OC(=O)c1ccc(Cl)cc1,94.5,x,x,x,x,i,1.03
COC(=O)c1ccc(-c2nc(O)c3cnccn23)cc1,101.8,21.4,89.2,-1.6,-1.7,i,1.02
Cc1ccc2sc(N(CCCN(C)C)C(=O)c3ccc(Br)s3)nc2c1C,103.8,x,x,1.1,x,i,0.71
COc1ccc(C(=O)C2CCCN(Cc3ccc(C#CCCO)cc3)C2)c(OC)c1 (configuration not stated),96.3,x,x,-8.9,x,i,0.97
CCCCN1C(=O)/C(=C/C=C2/CC(C)(C)CN2C)SC1=S,114.8,-270.4,120.1,-9.6,-0.8,u,x
CC(C)C(=O)Nc1cccc(NC(=O)c2cc3ccccc3o2)c1,100.4,x,x,1.6,0.1,i,0.95
COc1ccc(C2CC2C(C)=O)cc1 (configuration not stated),97.4,x,x,-3.1,x,i,1.06
CC(=O)Nc1ccccc1OCC(=O)c1ccc2c(c1)OCO2,101.0,x,x,8.8,-2.7,i,1.11
CNC(=O)c1c(NC(=O)c2cc(-c3cc(C)c(C)cc3O)n[nH]2)sc2c1CCCC2,99.1,x,x,x,x,i,0.64
CC(NC(=O)c1noc2c1CCCC2)c1ccccc1 (configuration not stated),106.9,-20.0,156.5,-10.6,0.0,i,0.9
CC(O)CNc1nc2ccccc2n1CC(=O)NCC(F)(F)F (configuration not stated),93.5,-21.4,73.7,1.7,x,x,x
Cc1cc(C)c2c(NC(=S)Nc3ccccc3)n[nH]c2n1,110.4,x,x,1.4,x,i,0.88
NC(=O)CC(NC(=O)c1ccccc1)c1ccc(NCC2CC2)c([N+](=O)[O-])c1 (configuration not stated),91.3,x,x,x,x,i,0.83
CCC(=O)Nc1cccc(-n2nnnc2SCC(=O)c2ccc(C)c(C)c2)c1,118.7,-5.4,29.8,-14.3,-4.5,i,0.87
COc1ccc(CC(=O)N2CC(C)CC(C)C2)cc1 (configuration not stated),99.4,-2.8,61.5,-5.9,-1.0,i,0.75
O=C(COc1ccccc1C(=O)NCc1ccccn1)Nc1ccc(Br)cc1,98.7,-91.7,91.8,-6.8,x,i,0.99
COc1ccc(CNC(=S)NCc2ccc(OC(C)C)cc2)cc1,100.8,30.8,119.0,-3.0,-0.9,i,1.02
CC1=CC(C2CC(=O)N(c3ccccc3C)C2=O)CC2C(=O)N(c3ccccc3C)C(=O)C12 (configuration not stated),101.4,35.7,113.6,-4.7,-1.6,i,0.96
Cc1cccc(C(=O)NN2C(=O)C3C(c4ccccc4)C=CC(c4ccccc4)C3C2=O)c1 (configuration not stated),129.2,x,x,-8.7,-1.2,i,1
O=C(Nc1nnc(C2CC2)s1)C1CC(=O)N(c2ccc3c(c2)OCCO3)C1 (configuration not stated),104.9,x,x,-3.9,1.2,i,0.82

# Compound profiles, from the list above:
# `CC1=CC(C2CC(=O)N(c3ccccc3C)C2=O)CC2C(=O)N(c3ccccc3C)C(=O)C12` (configuration not stated) in the list: RGS16-Gao = 101.4; INS promoter inh = 35.7; INS promoter inh cell count = 113.6; PKD1 kinase inh = -4.7; GALR2 ag = -1.6; HSV replic up = i; HSV replic up primary fold = 0.96
# `Cc1cc(C)c2c(NC(=S)Nc3ccccc3)n[nH]c2n1` in the list: RGS16-Gao = 110.4; INS promoter inh = x; INS promoter inh cell count = x; PKD1 kinase inh = 1.4; GALR2 ag = x; HSV replic up = i; HSV replic up primary fold = 0.88
# `CC(O)CNc1nc2ccccc2n1CC(=O)NCC(F)(F)F` (configuration not stated) in the list: RGS16-Gao = 93.5; INS promoter inh = -21.4; INS promoter inh cell count = 73.7; PKD1 kinase inh = 1.7; GALR2 ag = x; HSV replic up = x; HSV replic up primary fold = x

# The list goes on:
SMILES,RGS16-Gao,INS promoter inh,INS promoter inh cell count,PKD1 kinase inh,GALR2 ag,HSV replic up,HSV replic up primary fold
O=C(CCC1CCCN(C(=O)Cn2cnnn2)C1)NCc1ccc(F)c(F)c1 (configuration not stated),98.4,x,x,2.6,x,i,0.99
CCOc1cc(C2C(C(=O)O)c3cc(OCC)c(OCC)cc3C(=O)N2C)ccc1O (configuration not stated),112.2,3.1,128.4,-2.0,-1.0,i,0.87
Cc1nc2ccc(NC(=O)c3ccc(N4C(=O)CCC4=O)cc3)cc2s1,96.9,x,x,-0.4,x,i,0.98
Cc1nc(N2CCOCC2)c2c3c(sc2n1)CCC3,102.0,x,x,0.2,x,i,0.86
CCCCN(C(=O)NC(=O)Nc1c(C)cc(C)cc1C)S(C)(=O)=O,103.5,-163.6,132.1,-13.5,-1.9,i,0.95
Cc1cc(-c2nnnn2-c2ccc(F)cc2)no1,97.5,x,x,x,x,i,0.96
O=C(O)c1cc(S(=O)(=O)N2CCOCC2)ccc1N1CCOCC1,98.5,18.9,39.7,-13.5,-2.6,i,0.943
Clc1ccc(CN2CCN(c3ccccc3)CC2)cn1,100.1,x,x,4.7,x,i,0.88
O=C(CSc1ncccn1)NC(=O)Nc1ccc2c(c1)OCCO2,116.7,26.7,53.5,-1.1,x,i,1
O=C(NCc1ccco1)c1ccc2nc3sc4c(c3c(=O)n2c1)CCCC4,99.4,16.7,137.0,-8.3,-0.3,i,0.977
Cc1cccc(NC(=O)NNC(=O)c2c(Cl)c(C)nn2C)c1,110.4,-38.5,135.6,16.6,-0.6,i,0.95
Cc1ccc(C)c(NC(=O)CSc2nnc(CSc3nc(C)cc(C)n3)n2Cc2ccco2)c1,77.0,x,x,-3.4,-0.4,i,1.16
CC(=O)Nc1c(O)nc(SCC(=O)Nc2cccc(C)c2)[nH]c1=O,93.0,37.1,85.3,-1.9,-2.2,i,0.99
COc1ccc(CC(=O)NC(C)c2nnc(SCCC(=O)Nc3ccccc3)n2C)cc1 (configuration not stated),118.9,x,x,4.6,x,i,1.02
CCOC(=O)c1sc(N)c(C#N)c1CSc1nnc(C2CCCCC2)n1N,99.3,x,x,-7.3,-1.3,i,1.02
COc1ccc(NC(=O)CSc2c3c(nc4cc(Cl)ccc24)CCCC3)cc1OC,107.0,57.6,90.8,-14.4,0.3,i,0.98
CCn1c(=O)c(C(=O)NCc2ccc(OC)cc2)c(O)c2ccccc21,94.8,-14.7,101.5,-4.5,-1.3,i,0.93
COC(=O)N1C/C=C\C(c2ccc(OC)cc2)N(Cc2ccc(F)cc2)C(=O)C1 (configuration not stated),101.0,x,x,x,x,i,0.835
c1ccc(CNCC2COc3ccccc3O2)cc1 (configuration not stated),103.8,-87.5,68.4,-4.0,-1.5,i,1.01
O=C(NCCN1CCc2ccccc2C1)Nc1ccc([N+](=O)[O-])cc1,99.7,x,x,-2.3,x,i,0.98
CCC(C)NC(=S)NNC(=O)c1ccncc1 (configuration not stated),97.3,18.9,70.5,-10.4,x,i,1.08
Cc1cc(NC(=O)c2ccc3c(c2)OCCO3)no1,100.8,-61.3,121.1,-14.8,-0.6,i,0.923
CCn1c(N2CCN(C(=O)NC3CCCCC3)CC2)nc2ccccc21,106.5,37.5,139.0,-0.6,-2.5,i,0.99
CS(=O)(=O)N1CCC(C(=O)Nc2cccc([N+](=O)[O-])c2)CC1,95.3,17.6,86.8,-9.6,x,i,1.11
O=C1NC(c2ccc(Cl)cc2)Nc2ccccc21 (configuration not stated),118.1,x,x,-0.9,x,i,0.91
CCc1ccc(C(=O)NNc2cc(Cl)cc(Cl)c2)cc1,104.9,x,x,x,x,i,1.04
Cc1sc2c(c1C)C(=O)NC(c1ccccc1F)N2 (configuration not stated),87.2,x,x,x,x,i,0.87
C=C(C)c1cccc(C(C)(C)NC(=O)N2CCN(c3ccccc3OC)CC2)c1,103.7,7.7,89.9,-4.9,-1.9,x,x
Cn1c(=O)[nH]c(=O)c2c1nc(Br)n2CCCO,96.2,-15.4,83.2,6.0,-3.7,i,0.82
COc1ccc(NC(=S)N2CCC(N(C)CCN3CCOCC3)CC2)cc1,99.7,-13.9,130.3,-12.0,-1.6,i,1.02
